High-throughput results: PubChem BioAssay, Broad Institute
FGF22 binding – binders of recombinant human FGF22 by thermal shift; Q9HCT0; SYPRO orange fluorescence; percent of sucrose octasulfate shift, DMSO zero; calls only at 9.99 µM; 1.5% of 340,000 active;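 active means melting point raised past a set limit in the mean and every replicate; three in four hits are not shown here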
Target sequence (Q9HCT0 whole entry, looked up): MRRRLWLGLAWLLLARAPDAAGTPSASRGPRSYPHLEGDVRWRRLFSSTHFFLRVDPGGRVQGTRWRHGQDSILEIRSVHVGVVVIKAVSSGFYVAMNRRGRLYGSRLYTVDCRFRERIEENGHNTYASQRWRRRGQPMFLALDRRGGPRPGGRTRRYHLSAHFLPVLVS
MLL AF4-AF9 inh – blocks AF4 peptide binding to human AF9; AlphaScreen, biotin-AF4 peptide binding to FLAG-AF9; inhibition, % at 10 µM; 0.47% of 350,000 active; AID 651704;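 active means every replicate reaching a set inhibition limit, whatever the replicate mean, cut at about 25% in these data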;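 further: 0% = plate neutral control median and 100% = total signal loss; the record names both 10 and 1 µM as test concentration; the first replicate is given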
Target sequence (P42568 whole entry, looked up): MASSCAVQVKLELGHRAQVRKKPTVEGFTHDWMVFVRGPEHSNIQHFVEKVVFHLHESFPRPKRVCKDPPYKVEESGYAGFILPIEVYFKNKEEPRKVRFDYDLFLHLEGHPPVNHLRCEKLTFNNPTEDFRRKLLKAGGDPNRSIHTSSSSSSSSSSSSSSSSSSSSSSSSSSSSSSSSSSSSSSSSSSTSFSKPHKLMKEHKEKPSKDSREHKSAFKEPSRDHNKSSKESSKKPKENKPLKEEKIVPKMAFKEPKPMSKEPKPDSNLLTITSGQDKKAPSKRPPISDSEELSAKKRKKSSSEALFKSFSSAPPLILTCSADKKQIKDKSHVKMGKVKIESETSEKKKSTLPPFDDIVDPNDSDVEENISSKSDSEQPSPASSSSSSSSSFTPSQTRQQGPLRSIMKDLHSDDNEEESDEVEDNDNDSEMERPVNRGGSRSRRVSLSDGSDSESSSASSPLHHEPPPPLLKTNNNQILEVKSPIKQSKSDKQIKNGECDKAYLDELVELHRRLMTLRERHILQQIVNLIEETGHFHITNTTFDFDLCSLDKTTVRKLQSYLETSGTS
Active calls of the source: *; i = inactive; + = active, no number. Not all compounds are listed; count on the stated rates, not on these rows.

#	SMILES	FGF22 binding	MLL AF4-AF9 inh
1	C[C@@H]1CN([C@H](C)CO)S(=O)(=O)c2ccc(C#CC3CCCCC3)cc2O[C@@H]1CN(C)C(=O)Cc1ccncc1	i	4.0
2	C[C@@H]1CN([C@@H](C)CO)C(=O)c2cc(NC(=O)Nc3ccc(C(F)(F)F)cc3)ccc2O[C@@H](C)CCCCO[C@@H]1CN(C)Cc1ccncc1	i	0.0
3	C[C@H](CO)N1C[C@H](C)[C@@H](CN(C)S(=O)(=O)c2cccs2)Oc2c(NC(=O)Nc3ccc(F)cc3)cccc2C1=O	i	-0.8
4	C[C@@H]1CN([C@H](C)CO)C(=O)Cc2cc(NS(C)(=O)=O)ccc2O[C@H]1CN(C)Cc1ccncc1	i	-4.3
5	CC(C)N(C[C@H]1[C@H](c2ccccc2)[C@H](CO)N1S(C)(=O)=O)C(=O)CN(C)C	i	-1.3
6	COc1cccc(-c2ccc3c(c2)[C@H]2[C@H](CCN2S(=O)(=O)c2ccc(F)cc2)[C@@H](CO)N3C)c1	i	1.9
7	CCOC(=O)C1=CCC(c2ccc([N+](=O)[O-])cc2)N(S(=O)(=O)c2ccc(C)cc2)C1 (configuration not stated)	i	5.1
8	CCCNC(=O)Nc1ccc2c(c1)C(=O)N(C)C[C@@H](OC)[C@H](C)CN(C(=O)C1CCCCC1)[C@@H](C)CO2	i	0.0
9	C[C@H]1CCCCO[C@H](CN(C)C)[C@@H](C)CN([C@@H](C)CO)C(=O)c2cc(NC(=O)Nc3ccc4c(c3)OCO4)ccc2O1	i	9.6
10	C[C@H]1CN([C@@H](C)CO)C(=O)c2cccc(NC(=O)Nc3ccc4c(c3)OCO4)c2O[C@@H]1CN(C)Cc1ccncc1	i	-2.2
11	CCCN(C)C[C@H]1OCCCC[C@@H](C)Oc2ccc(NC(=O)Nc3ccc(OC)cc3)cc2C(=O)N([C@@H](C)CO)C[C@H]1C	i	12
12	C[C@H]1CN([C@@H](C)CO)S(=O)(=O)c2ccc(/C=C/c3ccccc3)cc2O[C@H]1CN(C)Cc1ccccc1	i	9.6
13	CC(C)(C)[S@](=O)N1Cc2cc(C(=O)NCCc3ccncc3)nc(-c3cccc(-c4ccncc4)c3)c2[C@@H]1CCO	i	-3.7
14	C[C@H](CO)N1C[C@H](C)[C@@H](CN(C)CC2CC2)Oc2ccc(NS(=O)(=O)c3ccccc3)cc2CC1=O	i	1.0
15	CC(C)NC(=O)Nc1ccc2c(c1)CC(=O)N([C@H](C)CO)C[C@H](C)[C@H](CN(C)S(C)(=O)=O)O2	i	-1.8
16	CN(C)CC(=O)N[C@@H]1CC[C@@H](CCn2cc(C3CC3)nn2)O[C@@H]1CO	i	-1.9
17	C[C@@H]1CN([C@@H](C)CO)C(=O)c2cc(/C=C/c3ccccc3)cnc2O[C@@H]1CN(C)C(=O)C1CCCCC1	i	3.4
18	Cc1ccccc1S(=O)(=O)NCC[C@H]1CC[C@@H](NS(=O)(=O)c2ccccc2C)[C@@H](CO)O1	i	-0.7
19	COc1ccc(NC(=O)N(C)C[C@@H]2Oc3ccc(NC(=O)NC4CCCCC4)cc3CC(=O)N([C@@H](C)CO)C[C@@H]2C)cc1	i	-0.7
20	O=C(Cc1ccccn1)N[C@H]1C=C[C@@H](CC(=O)N2CCCCC2)O[C@@H]1CO	i	-1.7
21	CCCNC(=O)C[C@H]1CC[C@H]2[C@@H](COC[C@@H](O)CN2S(=O)(=O)c2ccc(Oc3ccccc3)cc2)O1	i	1.4
22	COCC(=O)N1C[C@@H]2[C@H](c3ccccc31)[C@H](CO)N2C(=O)Nc1ccccc1F	i	-1.4
23	COc1ccc(OC(=O)N(C)C[C@@H]2OCc3ccccc3-c3ccccc3C(=O)N([C@@H](C)CO)C[C@@H]2C)cc1	i	-2.7
24	C[C@H]1NS(=O)(=O)c2cccc(Cl)c2O[C@@H]1c1ccccc1	i	-2.1
25	CCC(=O)N1C[C@H](C)[C@H](OC)CN(C)C(=O)c2cc(NC(=O)C3CCCCC3)ccc2OC[C@H]1C	i	0.7
26	CCCNC(=O)N1C[C@@H](C)[C@@H](OC)CN(C)C(=O)c2cc(NS(=O)(=O)CC(F)(F)F)ccc2OC[C@@H]1C	i	-2.0
27	Cn1cnc(S(=O)(=O)N[C@@H]2CC[C@@H](CC(=O)NCC3CCCCC3)O[C@@H]2CO)c1	i	-1.4
28	O=C(C[C@@H]1CC[C@H]2[C@@H](COC[C@@H](O)CN2C(=O)c2ccccc2)O1)N1CCc2ccccc2C1	i	-3.0
29	COc1ccc2c3c(n(C)c2c1)[C@H](CO)N(C(=O)c1cnccn1)CC31CN(C(=O)c2cnccn2)C1	i	-0.8
30	CC(C)CC#Cc1ccc2c(c1)O[C@@H](CN(C)C(=O)c1ccccc1F)[C@H](C)CN([C@H](C)CO)S2(=O)=O	i	-3.0
31	CC(=O)N1CC2(C1)[C@H](c1ccccc1)[C@H](CO)N2Cc1cc(F)ccc1F	i	-2.5
32	O=C(NCC[C@@H]1CC[C@H](NS(=O)(=O)c2cccc(F)c2)[C@H](CO)O1)C1CCOCC1	i	-3.3

Fetched one by one from the list above:
#	SMILES	FGF22 binding	MLL AF4-AF9 inh
15	CC(C)NC(=O)Nc1ccc2c(c1)CC(=O)N([C@H](C)CO)C[C@H](C)[C@H](CN(C)S(C)(=O)=O)O2	i	-1.8
17	C[C@@H]1CN([C@@H](C)CO)C(=O)c2cc(/C=C/c3ccccc3)cnc2O[C@@H]1CN(C)C(=O)C1CCCCC1	i	3.4
16	CN(C)CC(=O)N[C@@H]1CC[C@@H](CCn2cc(C3CC3)nn2)O[C@@H]1CO	i	-1.9
14	C[C@H](CO)N1C[C@H](C)[C@@H](CN(C)CC2CC2)Oc2ccc(NS(=O)(=O)c3ccccc3)cc2CC1=O	i	1.0
2	C[C@@H]1CN([C@@H](C)CO)C(=O)c2cc(NC(=O)Nc3ccc(C(F)(F)F)cc3)ccc2O[C@@H](C)CCCCO[C@@H]1CN(C)Cc1ccncc1	i	0.0

Later entries
#	SMILES	FGF22 binding	MLL AF4-AF9 inh
33	O=C(C[C@H]1C=C[C@H](NS(=O)(=O)c2ccc(F)cc2)[C@H](CO)O1)NC1CCCCC1	i	-3.5
34	Cc1ccc(S(=O)(=O)Nc2ccc3c(c2)C(=O)N([C@@H](C)CO)C[C@@H](C)[C@@H](CN(C)Cc2ccc(C(=O)Nc4ccccc4N)cc2)O3)cc1	i	-2.4
35	CCC(=O)N(C)C[C@@H]1Oc2cc(C#CCC(C)C)ccc2S(=O)(=O)N([C@@H](C)CO)C[C@H]1C	i	1.6
36	C[C@H](CO)N1C[C@H](C)[C@@H](CN(C)Cc2ccc(C(F)(F)F)cc2)Oc2c(NC(=O)CCCCCC(=O)Nc3ccccc3N)cccc2C1=O	i	-2.2
37	C[C@H](CO)N1C[C@H](C)[C@H](CN(C)C(=O)Nc2ccc(F)cc2)Oc2ccc(NS(=O)(=O)c3ccccc3)cc2C1=O	i	-0.5
38	C[C@@H]1CN([C@@H](C)CO)C(=O)Cc2cc(NC(=O)CCN3CCOCC3)ccc2O[C@H]1CN(C)C	i	-2.2
39	CC(=O)N(C)C[C@@H]1Oc2cc(C#CCN(C)C)ccc2S(=O)(=O)N([C@H](C)CO)C[C@H]1C	i	-3.4
40	Cc1noc(C)c1NC(=O)N(C)C[C@H]1Oc2c(NC(=O)C3CCOCC3)cccc2C(=O)N([C@H](C)CO)C[C@H]1C	i	-1.6
41	COc1ccc(S(=O)(=O)Nc2ccc3c(c2)C(=O)N([C@@H](C)CO)C[C@@H](C)[C@@H](CN(C)C(=O)Nc2c(C)noc2C)O3)cc1	i	-2.4
42	Cc1ccc(S(=O)(=O)N(C)C[C@@H]2Oc3cc(C#Cc4ccccc4)ccc3S(=O)(=O)N([C@@H](C)CO)C[C@@H]2C)cc1	i	-2.4
43	C[C@H](CO)N1C[C@H](C)[C@H](CN(C)Cc2ccc(C(F)(F)F)cc2)Oc2ccc(NS(=O)(=O)c3ccc(F)cc3)cc2C1=O	i	-2.8
44	C[C@@H]1CN([C@H](C)CO)C(=O)c2cc(-c3ccncc3)cnc2O[C@@H]1CN(C)C(=O)C1CCOCC1	i	-5.2
45	C[C@H](CO)N1C[C@H](C)[C@H](CN(C)C(=O)Nc2ccc(C(F)(F)F)cc2)Oc2c(NC(=O)Nc3cccc4ccccc34)cccc2C1=O	i	3.2
46	COCC(=O)N1C[C@H](C)[C@H](OC)CN(C)C(=O)c2cc(NC(=O)c3cc(C)on3)ccc2OC[C@H]1C	i	-3.4
47	O=C(C1CC1)N1C[C@H]2[C@@H](c3ccccc31)[C@H](CO)N2Cc1ccccc1Cl	i	-4.3
48	C/C=C/c1ccc2c(c1)O[C@H](CN(C)C(=O)Nc1ccccc1)[C@@H](C)CN([C@@H](C)CO)S2(=O)=O	i	3.0
49	COCC(=O)Nc1ccc2c(c1)C(=O)N(C)C[C@@H](OC)[C@H](C)CN(Cc1ccccn1)[C@H](C)CO2	i	3.3
50	C[C@H](CO)N1C[C@H](C)[C@@H](CN(C)Cc2ccc(C(F)(F)F)cc2)Oc2ccc(NC(=O)Cc3ccccc3)cc2C1=O	i	-7.1
51	COc1ccccc1-c1ccc2c(c1)[C@@H]1[C@@H](CCN1S(=O)(=O)c1cccc(F)c1)[C@H](CO)N2	i	6.6
52	C[C@@H]1CN([C@@H](C)CO)C(=O)c2cc(-c3cccnc3)cnc2O[C@@H]1CN(C)C(=O)C1CCC1	i	-7.9
53	COc1ccccc1NC(=O)N[C@H]1CC[C@@H](CCNC(=O)c2ccc3c(c2)OCO3)O[C@@H]1CO	i	1.1
54	C[C@@H]1CCCCO[C@H](CN(C)C)[C@@H](C)CN([C@H](C)CO)C(=O)c2cc(NC(=O)c3ccncc3)ccc2O1	i	5.2
55	C[C@H](CO)N1C[C@H](C)[C@@H](CN(C)C(=O)C2CCC2)Oc2ncc(C#CC(C)(C)O)cc2C1=O	i	-0.9
56	CN1[C@H](C(=O)NC2CCCCC2)[C@@H](CO)[C@@H]2Cn3c(ccc(/C=C/c4ccccc4)c3=O)[C@@H]21	i	-6.7

The closing two entries of the part above are carried over, then new ones follow:
#	SMILES	FGF22 binding	MLL AF4-AF9 inh
55	C[C@H](CO)N1C[C@H](C)[C@@H](CN(C)C(=O)C2CCC2)Oc2ncc(C#CC(C)(C)O)cc2C1=O	i	-0.9
56	CN1[C@H](C(=O)NC2CCCCC2)[C@@H](CO)[C@@H]2Cn3c(ccc(/C=C/c4ccccc4)c3=O)[C@@H]21	i	-6.7
57	COc1cccc(NC(=O)Nc2ccc3c(c2)C(=O)N(C)C[C@H](OC)[C@H](C)CN(CC2CC2)[C@@H](C)CO3)c1	i	7.3
58	CCCC(=O)Nc1ccc2c(c1)OC[C@H](C)N(Cc1ccc(F)cc1)C[C@@H](C)[C@H](OC)CN(C)C2=O	i	1.9
59	N#C[C@@H]1[C@H](c2ccc(-c3ccccc3)cc2)[C@H](CO)N1C(=O)Cc1ccccc1	i	-1.0
60	O=C(C[C@H]1CC[C@@H](NC(=O)NC2CCCCC2)[C@H](CO)O1)NCc1ccc(Cl)cc1	i	-1.8
61	CCC(=O)N1[C@@H](CO)[C@@H](c2ccc(-c3ccc(F)cc3)cc2)C12CN(C(C)=O)C2	i	1.9
62	O=S(=O)(c1ccccc1F)N1CC[C@@H]2[C@H]1c1cc(-c3ccc(F)cc3)ccc1N[C@@H]2CO	i	-5.6
63	O=C([C@@H]1[C@@H](CO)[C@@H]2Cn3c(cccc3=O)[C@@H]2N1CCC(F)(F)F)N1CCCCC1	i	-0.1
64	COc1cccc(-c2ccc3c(c2)[C@H]2[C@H](CCN2C(=O)c2ccccn2)[C@@H](CO)N3)c1	i	5.4
65	CNC[C@H]1OCCCC[C@@H](C)Oc2ccc(NS(C)(=O)=O)cc2C(=O)N([C@@H](C)CO)C[C@H]1C	i	-4.3
66	O=C(c1ccccn1)N1C[C@H]2[C@@H](c3ccccc31)[C@H](CO)N2C(=O)C1CCCCC1	i	4.6
67	C/C=C/c1ccc2c(c1)O[C@H](CN(C)C(=O)c1ccccc1)[C@H](C)CN([C@@H](C)CO)S2(=O)=O	i	1.3
68	Cc1noc(C)c1S(=O)(=O)Nc1ccc2c(c1)C(=O)N([C@H](C)CO)C[C@@H](C)[C@@H](CN(C)C(=O)Nc1ccc(C(F)(F)F)cc1)OCCCC[C@@H](C)O2	i	-2.9
69	N#C[C@H]1[C@@H](c2ccccc2-c2ccccc2F)[C@@H](CO)N1C(=O)C1CCOCC1	i	0.0
70	C[C@@H]1CN([C@H](C)CO)C(=O)c2cc(C#CC3CC3)cnc2O[C@H]1CN(C)Cc1ccccn1	i	-0.6
71	COc1cccc(NC(=O)N(C)C[C@H]2Oc3cc(-c4ccccc4F)ccc3S(=O)(=O)N([C@H](C)CO)C[C@H]2C)c1	+	0.8
72	Cc1noc(C)c1NC(=O)N(C)C[C@@H]1Oc2ncc(C#CCN(C)C)cc2C(=O)N([C@@H](C)CO)C[C@H]1C	i	-1.1
73	Cc1noc(C)c1S(=O)(=O)Nc1ccc2c(c1)C(=O)N([C@H](C)CO)C[C@@H](C)[C@H](CN(C)C(=O)Nc1cccc3ccccc13)OCCCC[C@@H](C)O2	i	-4.4
74	C[C@@H]1CCCCO[C@@H](CN(C)C(=O)CCCN(C)C)[C@H](C)CN([C@@H](C)CO)C(=O)c2cc(NS(C)(=O)=O)ccc2O1	i	-5.1
75	C[C@@H]1CN([C@@H](C)CO)C(=O)Cc2cc(NC(=O)C3CC3)ccc2O[C@H]1CN(C)C(=O)Nc1ccc(F)cc1	i	-1.3
76	CCC(=O)Nc1ccc2c(c1)C(=O)N(C)[C@H]1CC[C@@H](CC(=O)N3CCCCC3)O[C@@H]1CO2	i	0.4
77	CC(C)NC(=O)N(C)C[C@H]1OCCCC[C@H](C)Oc2ccc(NC(=O)Nc3cccc4ccccc34)cc2C(=O)N([C@H](C)CO)C[C@@H]1C	i	-12
78	O=C(Nc1cccc(Cl)c1)N1C[C@H]2[C@@H](c3ccccc31)[C@@H](CO)N2Cc1ccccc1Cl	i	3.4
